StopGo reporter = High Throughput Screening for Foot and Mouth Disease Virus Antivirals; human cells with a luciferase reporter of 2A StopGo recoding; control for the full effect not named in the record; Potency, µM (highest dose often 57.9 µM), for the others: at the highest dose signal change, negative = less light; actives 1.2% (n = 410,000); AID 1159524, 2015; active = well fitted falling curve with a large enough effect; inconclusive = small, poorly fitted or top-dose-only effect; inactive = no such curve, though single readings can be large or run the other way; tested in HEK293T cells; also: % is scaled to controls: 0 for no effect and ±100 for the full control effect; nearly all actives have a fitted effect of over 45% in size; luciferase light after 4 h
NS1 function inh = qHTS Assay for Inhibitors of Influenza NS1 Protein Function; S. cerevisiae slowed by influenza A NS1, growth recovery by OD600; actives 0.4% (n = 270,000); Potency, µM (top dose mostly 46.1 µM), inactives show at the highest dose activity, positive = more growth; active means well fitted rising curve with a large enough effect; inconclusive means small, poorly fitted or top-dose-only effect; inactive means no such curve, though single readings can be large or run the other way; also: nearly all actives have a fitted effect of over 50% in size
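Compounds were scored for reversing the slow growth caused by influenza A NS1 in S. cerevisiae, measured by optical density at 600 nm. Assay medium contained 2% galactose at pH 6.0; NS1-free yeast of the same strain were the positive control.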
RE007 growth inh = qHTS Assay for Inhibitors of the HIV-1 protein Vpr. S. pombe RE007 Vpr strain, BacTiter-Glo ATP luminescence, 24 h; control for the full effect not named in the record. Potency, µM (doses to about 92.2 µM), inactives show at the top dose activity change, negative = less growth. actives 0.21% (n = 360,000); active = well fitted falling curve with a large enough effect; inconclusive = small, poorly fitted or top-dose-only effect; inactive = no such curve, though single readings can be large or run the other way;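 also: % is scaled to controls: 0 for no effect and ±100 for the full control effect; nearly all actives have a fitted effect of over 50% in size; the assay follows cell death caused by Vpr and the record does not say whether a fall means rescue or toxicity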
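Fission yeast strain RE007, carrying one chromosomally integrated HIV-1 vpr copy, was seeded at OD 0.01 in PMG+AL medium with 23 nL pinned compound. After 24 h at 30 °C and 99% humidity, viability was read by BacTiter-Glo luminescence.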
SARS PLpro yeast = qHTS of Yeast-based Assay for SARS-CoV PLP; S. cerevisiae expressing SARS-CoV PLpro, growth rescue; control for the full effect not named in the record; Potency, µM (doses to about 32.9 µM), for inactives: at the highest dose activity, positive = growth rescue; actives 0.19% (n = 330,000); active means well fitted rising curve with a large enough effect; inconclusive means small, poorly fitted or top-dose-only effect; inactive means no such curve, though single readings can be large or run the other way; also: 0% is about no effect; nearly all actives have a fitted effect of over 55% in size; growth read by luminescence after 48 h
Lassa entry inh = qHTS for Inhibitors of binding or entry into cells for Lassa Virus; AID 540256, 2011; Lassa virus pseudotype entry inhibition, cell reporter; control for the full effect not named in the record; Potency, µM (series often up to 37.9 µM), inactives show at the top dose activity change, negative = inhibition, most hits filed as inhibitors; actives 1.2% (n = 300,000); active means well fitted inhibition curve with a large enough effect; inconclusive means small, poorly fitted or top-dose-only effect, or effect the other way; inactive means flat fitted curve, though single readings scatter; tested in HEK293 cells; also: % is scaled to controls: 0 for no effect and ±100 for the full control effect; nearly all actives have a fitted effect of over 50% in size; luciferase read-out
Cruzain inh noDet = qHTS Assay for Promiscuous and Specific Inhibitors of Cruzain (without detergent); purified cruzain, Z-FR-AMC fluorescence, no detergent; Potency, µM, for inactives: max response, negative = inhibition, most hits filed as inhibitors; actives 2.3% (n = 200,000); AID 1476, 2009;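 also: plate controls were enzyme without inhibitor for no effect and buffer without enzyme for full effect; nearly all actives have a fitted effect of over 40% in size; top concentration of the series not given in the record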
Target sequence (P25779 123-467 limits assumed): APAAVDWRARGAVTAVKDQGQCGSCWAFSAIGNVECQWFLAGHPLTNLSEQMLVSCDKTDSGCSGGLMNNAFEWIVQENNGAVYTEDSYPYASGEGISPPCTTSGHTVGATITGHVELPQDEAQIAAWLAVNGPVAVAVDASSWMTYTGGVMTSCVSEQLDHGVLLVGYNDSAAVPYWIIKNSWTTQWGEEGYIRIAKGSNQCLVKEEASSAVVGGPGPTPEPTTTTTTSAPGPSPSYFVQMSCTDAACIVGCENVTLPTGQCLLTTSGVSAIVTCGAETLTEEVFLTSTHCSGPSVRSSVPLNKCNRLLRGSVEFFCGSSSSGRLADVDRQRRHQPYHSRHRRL
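Detergent-free condition (0.00005% Triton X-100) in acetate buffer pH 5.5 with DTT. 1.5 nM enzyme and compound were pre-mixed 15 min, then 2 uM Z-FR-AMC substrate added; reaction progress from fluorescence change between first and third reads (60 s).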
MARV entry inh = qHTS for inhibitors of binding or entry into cells for Marburg Virus. Marburg virus pseudotyped entry inhibition, cell reporter; control for the full effect not named in the record; about a third of the inactives were read at about 46 µM. Potency, µM (doses to about 37.8 µM), for inactives: at the top dose activity change, negative = inhibition, most hits filed as inhibitors. actives 1.8% (n = 300,000). AID 540276, 2011; active = well fitted inhibition curve with a large enough effect; inconclusive = small, poorly fitted or top-dose-only effect, or effect the other way; inactive = flat fitted curve, though single readings scatter; tested in HEK293 cells; about a fifth of its hits are not listed in these tables; also: % is scaled to controls: 0 for no effect and ±100 for the full control effect; luciferase read-out
Cruzain inh Det = qHTS Assay for Promiscuous and Specific Inhibitors of Cruzain (with detergent) | Cruzipain (Trypanosoma cruzi), P25779 | purified cruzain, Z-FR-AMC fluorescence, 0.01% Triton | Potency, µM, without a hit: max response, negative = inhibition, hits mostly inhibitors | actives 0.43% (n = 200,000) | AID 1478, 2009;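 also: plate controls were neutral wells for no effect and buffer without enzyme for full effect; nearly all actives have a fitted effect of over 40% in size; top concentration of the series not given in the record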
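Read-out: AMC fluorescence (360 nm excitation, 450 nm emission), four reads over 2 min, first-to-third difference used. Conditions: cruzain 1.5 nM, Z-FR-AMC 2 uM, pH 5.5 acetate, 5 mM DTT, 0.01% Triton X-100.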
* hit, by the source's call; ? = inconclusive; nt = no result given; & = joins results of further samples; [ ] = another dose, or the depositor's remark. Unless noted, calls follow the shape of the dose curve; as a rule, active = well fitted curve in the direction sought with a large enough effect; inconclusive = small, poorly fitted or top-dose-only effect, or another doubt; inactive = no such curve, though single readings can be large; an effect the other way counts as inactive or inconclusive. Potency is read from the fitted curve at half-maximal effect.

SMILES | StopGo reporter | NS1 function inh | RE007 growth inh | SARS PLpro yeast | Lassa entry inh | Cruzain inh noDet | MARV entry inh | Cruzain inh Det
Cc1ccc(NC(=O)CCC(=O)c2ccc(F)cc2)cc1Cl | -4.8% | -9.9% | -25.9% | -0.3% | -11.3% | -2.1% | 19.6% | -1.7%
COc1ccc(CCCc2nnc(SCC(=O)Nc3ccc(OC)cc3)o2)cc1 | -4.8%&-16.7% | nt | -9.1% | -4.0% | -7.8%&19.3%[46.1 µM] | 2.4% | 7.6% | -4.1%
CCCc1noc(-c2ccc(NCc3ccc(C)cc3)c([N+](=O)[O-])c2)n1 | -20.8% | nt | nt | nt | 4.5%[46.1 µM] | 12.1% | -0.7%[46.1 µM] | -3.0%
O=C(CCc1nc2ccccc2c(=O)[nH]1)Nc1cccc(S(=O)(=O)N2CCCCC2)c1 | ? | nt | 4.2% | -10.5% | -29.8% | nt | 17.5% | nt
NS(=O)(=O)c1cccc(NC(=O)Cn2nc(C(=O)O)c3ccccc3c2=O)c1 | 15.0% | 5.5% | 6.6% | -1.0% | 27.7%[46.1 µM] | nt | 2.3%[46.1 µM] | nt
O=C(Nc1nc(C2C3CC4CC(C3)CC2C4)cs1)c1cc2cc([N+](=O)[O-])ccc2oc1=O (stereo not given) | 0.0% | -5.1% | -14.2% | 1.4% | 0.1% | 25.1µM* | ? | -2.1%
CCCOc1ccccc1C1NC(=O)NC(C)=C1C(=O)OCCOCC (stereo not given) | -15.4% | -10.9% | 23.9% | 7.6% | -18.9% | 1.9% | -2.8% | 3.1%
COc1cc2c(cc1NC(=O)Nc1ccc(C)cc1)oc1ccccc12 | 10.1% | -55.6% | -19.1% | -19.4% | 1.5% | ? | 1.9% | 6.9%
Cc1ccc(CSCCNS(C)(=O)=O)cc1 | 4.8% | -0.2% | 13.9% | -2.5% | 7.3% | -6.6% | -4.8% | 0.4%
O=C(O)c1ccc2c(=O)[nH]c(CCl)nc2c1 | -0.3% | nt | 4.2% | -4.1% | 0.8% | nt | 7.6% | nt
Cc1ccc(NC(=S)NNc2ncc(C(F)(F)F)cc2Cl)cc1 | ? | -4.0% | 5.9% | -27.7% | ? | 3.2% | ? | -3.9%
O=C(O)c1ccc(-n2nnnc2Oc2ccccc2C(=O)N2CCOCC2)cc1 | -19.0% | -6.3% | 3.1% | 1.7% | -2.7% | -6.6% | 6.8% | 7.3%
O=C(Cn1cc2c(n1)CCCCC2)Nc1ccccc1Br | 22.8% | -7.4% | -10.7% | -0.5% | nt | nt | nt | nt
CCS(=O)(=O)c1nc(S(=O)(=O)c2ccc(Cl)cc2)c(NCCN2CCOCC2)s1 | 11.0% | ? | -5.3% | -1.2% | -0.1%[46.1 µM] | nt | 6.4%[46.1 µM] | nt
COc1cccc(NS(=O)(=O)c2cc(-c3cnc(C4CC4)o3)ccc2C)c1 | 23.4% | nt | nt | nt | ? | -8.5% | nt | -7.1%
CCN(CC)C(=O)n1cnc(-c2ccccc2)c1-c1ccccc1 | 0.0% | 5.7% | -5.3% | 21.2% | -25.5% | -7.1% | 3.3% | 1.2%
CCSCCc1nnc(NC(=O)Nc2cccc(C(F)(F)F)c2)s1 | ? | -6.8% | -9.6% | 1.7% | nt | -12.8% | nt | -2.5%
CCCCN(C(=O)c1ccc2c(c1)OCO2)c1ccccc1 | -21.7% | 0.8% | -2.4% | -0.5% | -9.6% | nt | ? | nt
CC(c1ccco1)N(C(=O)c1cccs1)c1ccccn1 (stereo not given) | nt | 0.4% | 8.4% | -2.7% | ? | -2.9% | 0.7% | 3.3%
Cc1ccc(C2=NN(C(=O)CCC(=O)O)C(c3ccc4c(c3)OCO4)C2)cc1 (stereo not given) | 8.5% | ? | -0.9% | -3.3% | nt | nt | nt | nt
COc1cccc(C(=O)Nc2cccc(-c3ccc4nncn4n3)c2)c1OC | ? | nt | -2.8% | 1.5% | -27.1%[46.1 µM] | nt | ? | nt
CCC1CN(S(=O)(=O)c2cc(-c3cc(C)no3)ccc2C)c2cc(Cl)ccc2O1 (stereo not given) | -16.6% | nt | nt | nt | 4.5%[46.1 µM] | ? | nt | 0.6%
COc1ccc(NC(=O)COC(=O)Cc2c[nH]c3ccccc23)cc1OC | -5.3% | 6.6% | 14.3% | 2.3% | -22.7% | nt | 18.7% | nt
CCOC(=O)c1ccc(NC(=O)CSc2nc(-c3ccc(F)cc3)cc(C(F)(F)F)c2C#N)cc1 | 10.4% | nt | nt | nt | 7.8%[46.1 µM] | -7.1% | 2.8%[46.1 µM] | -1.4%
Cc1cc(C)n(CC(=O)N2c3ccccc3Sc3ccccc32)n1 | -7.4% | -3.7% | 0.2% | -14.0% | 12.0% | 4.6% | -8.8%&-8.8% | -0.3%
CCc1nnc(NS(=O)(=O)c2ccc(N/C=C\C(=O)c3cccc(OC)c3)cc2)s1 | 20.4% | 0.2% | -18.9% | 0.3% | -6.5% | nt | -11.0%[14.2 µM] | nt
Cc1nc(-c2coc3c(CN(C)C)c(O)ccc3c2=O)cs1 | 1.0% | 15.0% | -3.5% | -12.7% | 0.3% | 1.9% | 24.1% | 9.5%
CCc1ccccc1NC(=O)COc1ccc(C(=S)N2CCCC2)cc1 | -19.3% | nt | 7.5% | 1.5% | nt | nt | -28.6%[46.1 µM] | nt
COc1ccc(OC)c(-n2nnnc2SCC(=O)NCCc2ccccc2)c1 | -18.3% | 0.7% | 3.1% | 3.3% | -4.1% | 5.8% | ? | 1.2%
Cc1ccc(Cl)cc1NC(=O)N1CCc2cc(S(=O)(=O)N3CCC(C)CC3)ccc21 | 5.8% | nt | nt | nt | 6.0%[46.1 µM] | -0.8% | 22.2%[46.1 µM] | -2.0%
CCOc1ccc(S(=O)(=O)N2CCN(C(=O)c3cccn3C)CC2)cc1 | ? | -12.3% | 2.1% | 1.8% | 15.8% | 11.0% | -1.0% | 6.1%
C/C(=N\NC(=O)C1CCCN(S(=O)(=O)c2ccccc2)C1)c1cccnc1 (stereo not given) | -17.6% | 5.0% | -4.6% | 0.9% | 6.5% | 3.1% | -2.1% | 2.7%
Cc1ccc(-c2cc(C(F)(F)F)n3ncc(C(=O)N4CCCc5ccccc54)c3n2)cc1 | nt | 7.6% | -0.6% | -13.8% | 0.5% | 6.7% | 15.2% | -4.6%
CC(C)N(CCO)C(=O)CCc1nnc(Cc2cccc(C(F)(F)F)c2)o1 | 5.8% | 0.2% | 11.3% | 0.0% | -7.2%[46.1 µM] | nt | -12.1%[46.1 µM] | nt
O=C(Nc1ccccc1N1CCCCC1)c1ccccc1F | -24.1% | ? | -20.6% | -16.3% | 8.2% | 10.9% | -29.0% | -13.3%
CCCc1nc(Cl)c(C#N)c2c1CCCC2 | -7.6% | 4.6% | 8.8% | 11.9% | -1.1% | 4.9% | 1.4%[46.1 µM] | -3.7%
O=[N+]([O-])c1cccc(/C=C2\CCC(/C=N/Nc3ccc4ccccc4n3)=C2N2CCOCC2)c1 | -18.4% | 15.7% | -14.3% | -1.2% | -2.0% | -22.8% | ? | -9.8%
C=Cn1ccnc1P(=S)(c1ccc(Cl)cc1)c1nccn1C=C | -7.6% | nt | 6.9% | 3.0% | 18.8%[46.1 µM] | nt | -1.8%[46.1 µM] | nt
COc1cc2nc(N3CCN(C(=O)OCc4ccccc4)C(C(=O)NC(C)(C)C)C3)nc(N)c2cc1OC (stereo not given) | nt | 11.1% | nt | nt | ? | 23.3% | 11.2µM* | -7.5%
COc1cccc(C(=O)NC(=S)Nc2ccc3oc(=O)ccc3c2)c1 | -24.9% | -1.8% | ? | 20.0% | -0.5% | -9.8% | 13.0% | -4.2%
C/C(=N\O)c1ccccc1C(=O)O | -3.5% | 12.2% | 11.7% | 0.2% | -2.0% | 1.2% | ? | -1.3%
CC(C)c1ccc(NC(=O)c2cnc3sc(N4CCCC4)nn3c2=O)cc1 | 0.0% | nt | nt | nt | -24.2%[46.1 µM] | 9.7% | nt | -1.3%
Cc1ccccc1CNC(=O)c1ccc2nc(N3CCOCC3)sc2c1 | 24.3% | -12.7% | -10.2% | 7.0% | nt | nt | nt | nt
Cc1cccc(-c2nnc(SCc3nc4ccccc4[nH]3)n2Cc2ccco2)c1 | -27.0% | 5.5% | -1.2% | 0.7% | ? | -5.3% | ? | -3.9%
CC(=O)c1cccc(N=Nc2c(-c3ccccc3)[nH]n(-c3ccccc3)c2=O)c1 | -26.8% | -2.3% | 7.3% | 0.9% | -0.1% | nt | -11.2%[46.1 µM] | nt
Cc1cc(C(=O)N2CCN(c3ccccc3O)CC2)c(C)o1 | -15.1% | nt | -0.7% | -4.6% | 0.0% | nt | 19.3% | nt
N#Cc1c(NC(=O)CSc2n[nH]c(Cc3ccccc3)n2)oc(-c2ccccc2)c1-c1ccccc1 | -16.2% | ? | 2.9% | 6.8% | -1.6% | -9.7% | -1.0%&18.4% | -6.1%
Cc1cc(C(=O)Nc2cc(Br)ccc2O)on1 | -3.7% | -38.4% | 10.5% | 6.4% | nt | nt | nt | nt
COC(=O)[C@@H]1CCCN1C(=O)c1ccc(OC2CCN(Cc3ccccn3)CC2)cc1 | -5.6% | -8.6% | -2.9% | 2.2% | nt | nt | nt | nt
COc1ccc(OC)c(CNC(=O)c2ccc(Sc3ccc(C)cc3)c(N)c2)c1 | -14.1% | nt | nt | nt | -25.7%[46.1 µM] | -1.9% | nt | -0.2%

Screening results: PubChem, National Center for Advancing Translational Sciences (NCATS)

Compounds as they come (roughly 4.8% active in at least one column).
